# ClpP mod – qHTS Assay for Activators of ClpP; AID 651965, 2013; 340,000 compounds, 1.9% hits; purified B. subtilis ClpP, FRET peptide cleavage, 20 min; Potency, µM (top dose mostly 57.5 µM), without a hit: at the top dose activity change, negative = active; active = well fitted falling curve with a large enough effect; inconclusive = small, poorly fitted or top-dose-only effect; inactive = no such curve, though single readings can be large or run the other way; also: potency is read from the fitted curve at half-maximal effect; the source files actives as falling curves though it sought activators and does not explain the sign; nearly all actives have a fitted effect of over 65% in size; many hits overshoot -100%
# Target sequence (P80244 whole entry, looked up): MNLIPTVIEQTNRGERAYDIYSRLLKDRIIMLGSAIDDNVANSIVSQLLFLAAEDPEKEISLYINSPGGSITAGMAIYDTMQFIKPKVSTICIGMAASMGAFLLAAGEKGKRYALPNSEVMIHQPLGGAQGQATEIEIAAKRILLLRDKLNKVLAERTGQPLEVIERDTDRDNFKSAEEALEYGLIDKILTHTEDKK
#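 Purified B. subtilis ClpP, 10 microg/mL final in Tris/HCl pH8 with KCl, BSA, glycerol and Tween-20, cleaved an Abz/nitrotyrosine-quenched decapeptide. Fluorescence (ex 320, em 430) was read at 0 and 20 min at room temperature. Delta was normalized to 5.8 microM ADEP and DMSO/no-enzyme controls.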
# TRPV1 potentiator – human TRPV1 potentiation | Q8NER1 | 320,000 compounds, 0.02% hits | TRPV1-expressing cells, Fluo-8 calcium influx, capsaicin EC20 potentiation; host cell line not named in the record; control for the full effect not named in the record | potentiation, % at 8.33 µM; active means potentiation above 80%; inconclusive means 30% to 80%; inactive means below 30%; also: 0% is about no effect
# Target sequence (Q8NER1 whole entry, looked up): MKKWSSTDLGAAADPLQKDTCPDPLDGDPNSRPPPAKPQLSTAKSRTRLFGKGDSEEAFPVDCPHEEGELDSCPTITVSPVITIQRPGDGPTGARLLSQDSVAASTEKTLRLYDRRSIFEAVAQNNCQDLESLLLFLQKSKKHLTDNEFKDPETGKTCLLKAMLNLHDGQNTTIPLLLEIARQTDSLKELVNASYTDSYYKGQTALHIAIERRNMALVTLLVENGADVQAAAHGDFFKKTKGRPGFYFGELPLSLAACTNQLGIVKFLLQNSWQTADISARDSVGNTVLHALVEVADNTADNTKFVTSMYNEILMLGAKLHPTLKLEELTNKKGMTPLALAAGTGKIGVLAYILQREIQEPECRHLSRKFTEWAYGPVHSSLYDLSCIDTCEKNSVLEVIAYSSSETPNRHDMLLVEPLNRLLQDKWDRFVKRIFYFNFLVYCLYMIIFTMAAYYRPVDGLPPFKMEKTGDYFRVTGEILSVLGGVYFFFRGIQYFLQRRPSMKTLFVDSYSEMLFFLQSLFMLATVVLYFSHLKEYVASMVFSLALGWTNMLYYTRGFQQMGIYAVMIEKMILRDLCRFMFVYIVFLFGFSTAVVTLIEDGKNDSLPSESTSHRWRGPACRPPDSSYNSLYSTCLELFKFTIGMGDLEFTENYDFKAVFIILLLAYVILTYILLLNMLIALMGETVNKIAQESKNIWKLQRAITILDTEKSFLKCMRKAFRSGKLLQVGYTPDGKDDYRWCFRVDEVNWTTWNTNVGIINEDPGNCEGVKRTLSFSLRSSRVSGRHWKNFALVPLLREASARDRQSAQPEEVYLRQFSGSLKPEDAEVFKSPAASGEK
#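 TRPV1-expressing cells were cultured overnight at 35.5C and loaded with Fluo-8 calcium dye for 40 to 90 min at room temperature. After a 10 s baseline, compound was added and calcium influx was read kinetically for 3 min (ex 480/em 520 nm).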
# gsp ag – gsp mutant agonism; gsp mutant cells, cAMP HTRF, 30 min; control for the full effect not named in the record; Potency, µM (titrated, usually from 76.9 µM), for inactives: at the highest dose activation (cAMP increase), usual class: activators; 340,000 compounds, 0.13% hits; AID 624287; active = well fitted activation curve with a large enough effect; inconclusive = small, poorly fitted or top-dose-only effect, or another doubt; inactive = no such curve, though single readings can be large or run the other way; cell line not stated here;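 also: phosphodiesterase inhibitor Ro 20-1724 added with compounds to block cAMP breakdown; potency is read from the fitted curve at half-maximal effect; nearly all actives have a fitted effect of over 60% in size; about a fifth of the inactives were tested at one dose only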
#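 Cells in DMEM/10% FBS with G418 were pretreated with compounds in DMSO plus […] (300 uM stock) for 30 min at 37C. cAMP was measured by HTRF (cAMP-d2 plus anti-cAMP antibody-K) after 30 min at room temperature.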
# gsp antagonist – antagonists of gsp mutant (McCune-Albright syndrome); AID 624288; gsp-mutant cells, cAMP HTRF, 30 min; control for the full effect not named in the record; 340,000 compounds, 0.4% hits; Potency, µM (doses to about 76.9 µM), for inactives: top-dose activity change, negative = inhibition, hits mostly inhibitors; active = falling curve of any shape with a large fitted effect; inconclusive = falling curve, mostly with a smaller effect; inactive = flat or rising curve; cell line not stated here;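 also: intracellular cAMP measured with PDE inhibitor Ro 20-1724 present during compound exposure; potency is read from the fitted curve at half-maximal effect; % is scaled to controls: 0 for no effect and ±100 for the full control effect; nearly all actives have a fitted effect of over 65% in size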
#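 Measurement of cellular cAMP by homogeneous time-resolved fluorescence following a 30 min compound exposure at 37C. The PDE inhibitor […] was present throughout; the assay buffer was DPBS with 0.05% BSA and 0.005% Tween 20.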
# Menin MLL FP FL – displaces fluorescein MLL peptide from human menin; Fluorescence polarization, fluorescein-MLL peptide displacement from menin; FP activity change, % at 61.4 µM; 290,000 tested, under 10 active; inconclusive = falling polarisation curve, or a change in total fluorescence; inactive = total fluorescence flat and polarisation flat or rising; no compound was filed as active; the % refers to the polarisation; negative = inhibition;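 also: % of control where 0% means no effect; inhibitors lower the polarisation; unlabelled MLL peptide was the positive control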
# TRPML1 inh – inhibitors of human TRPML1 channel. Q9GZU1. AID 624415. 390,000 compounds, 0.02% hits. activity change, negative = inhibition, % (concentration not given with the values). TRPML1-inducible cells, Ca2+ dye fluorescence, FDSS; stronger effect = lower value; inhibition of EC80 agonist-evoked calcium signal; in the data active means activity change below about -50%; inconclusive means about -30% to -50%; inactive means above about -30%;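 also: stimulus is agonist 54-4 at its EC80 concentration; % is scaled to controls: 0 for no effect and ±100 for the full control effect; the text of the record puts the active cut at -80%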
#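 Tet-induced TRPML1-DL cells loaded with Ca8 no-wash calcium dye were read kinetically on FDSS. Compound addition was followed by EC80 agonist 54-4 (4 uM final); inhibition was read over 110 s.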
# Sfp PPTase inh – inhibitors of Bacillus subtilis Sfp phosphopantetheinyl transferase | Q9F4F7 | Biochemical Sfp PPTase activity, qHTS | Potency, µM, for inactives: max response, negative = inhibition, actives largely listed as inhibitors | 310,000 compounds, 3.5% hits | AID 1490; active = well fitted inhibition curve with a large enough effect; inconclusive = small, poorly fitted or top-dose-only effect, or another doubt; inactive = no such curve, though single readings can be large or run the other way;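 also: the enzyme is Sfp with the accession as filed and its product quenches rhodamine fluorescence; potency is read from the fitted curve at half-maximal effect; 0% = enzyme reaction without inhibitor and -100% = no enzyme wells; top concentration of the series not given in the record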
#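 Reaction rates are the 30-min fluorescence difference (ex 525, em 598 nm) in wells containing 15 nM Sfp, 5 uM rhodamine-CoA and 12.5 uM BHQ-2-YbbR at pH 7.6 with 10 mM MgCl2.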
# Numbers without * were called inactive; ? = inconclusive; nt = no result given; & = joins results of further samples; [ ] = another dose, or the depositor's remark. Compounds were not picked by outcome, and some 4.9% of all compounds hit somewhere here.
compound,Menin MLL FP FL,TRPV1 potentiator,gsp ag,Sfp PPTase inh,TRPML1 inh,gsp antagonist,ClpP mod
CN=c1scc(-c2ccccc2Br)n1/N=C/c1ccc[nH]1,13,-5,nt,-21%,nt,nt,nt
C=CCn1c(SCc2c(C)noc2C)nnc1C1COc2ccccc2O1 (stereo not drawn),-0.9,-4,6%,4%,-2,-2%,0.7%
COc1cccc(C(=O)NC(=O)Nc2cc(C)[nH]n2)c1,1.6,0,1%,18%,-20,8%,nt
COc1cccc(CN2CCN(C(=O)C3CCC(=O)N(C4CCCC4)C3)CC2)c1 (stereo not drawn),nt,-7,28%,3%,-8,8%,-1.7%
CC(=O)NS(=O)(=O)c1ccc(NC(=O)COc2cccc3c2OC(C)(C)C3)cc1,nt,2,0%,nt,19,8%,2.0%
Cn1c(=O)n(Cc2ccc(Cl)cc2)c2ccccc21,2.3,-2,-1%,-11%,41,-5%,-19%
Cc1cc(C)c(NC(=O)c2cn3c4c(c(N5CCN(C)CC5)c(F)cc4c2=O)OCC3C)c(C)c1 (stereo not drawn),0.1,1,?,-7%,-13,-12%,-17%
Cc1cc2c(cc1S(=O)(=O)N1CCN(c3cccc(C(F)(F)F)c3)CC1)OCC(=O)N2,nt,-13,8%,16%,-4,-9%,-0.6%
COCC(=O)N(C)c1nnc(-c2cnccn2)s1,6.5,-4,-3%,13%,13,18%,?
CC(CC(=O)OCC(=O)Nc1ccc2[nH]c(=O)[nH]c2c1)c1ccccc1 (stereo not drawn),nt,-5,3%,nt,-2,-6%,-10%
CCn1c(CC(=O)Nc2ccc(C)cc2)nnc1SCC(=O)N1CCN(c2ccccc2)CC1,2.4,15,-45%[inhibitor],3%,2,5%,-0.1%
COc1cccc(C2CC(=O)Nc3cc(C)c(C)cc32)c1 (stereo not drawn),nt,nt,-14%,nt,-17,nt,0.3%
COc1ccc(CCNC(=O)CCN2C(=O)[C@@H]3Cc4ccccc4CN3C2=O)cc1OC,nt,24,-29%,19%,11,-8%,1.0%
CCOc1ccc(NC(=O)COc2ccc(C(=O)NCc3cccnc3)cc2OC)cc1,nt,1,-6%,nt,-11,1%,0.4%
O=C1C2C3C=CC(C4CC34)C2C(=O)N1Cc1ccccc1 (stereo not drawn),-1.2,-16,2%[15.4 µM],-1%,-26,9%,nt
COc1ccc(S(=O)(=O)CCC(=O)N2CCN(c3cccc(Cl)c3)CC2)cc1,3.5,-5,-1%,-1%,11,-31%,-1.1%
Cn1c(=O)n(C)c2cc(NS(C)(=O)=O)ccc21,2.7,1,6%,6%,8,10%,-1.0%
CCOc1cc(C(=O)NCc2ccccc2)ccc1OCC(=O)N1CCCCC1,nt,-4,-28%,nt,42,-2%,-7.1%
Cn1cccc1/C=N/NC(=O)c1cccc(OC(F)(F)C(F)F)c1,-1.1,-6,-2%[15.4 µM],1%,-1,0%,-0.3%
CC(NC(=O)C(=O)NCC1CCCO1)c1ccccc1 (stereo not drawn),-0.8,-1,-3%[15.4 µM],22%,28,1%,0.1%
Cc1cccc(NCc2ccc([N+](=O)[O-])s2)c1,-1.9,3,6%[15.4 µM],6%,17,-18%,-0.1%
CNCc1ccccc1OCC(=O)Nc1ccccc1OC,-3.8,-2,-4%,8%,-13,12%,-2.8%
Cc1cc(Cl)cc(Br)c1OCCCN1C(=O)NC(C)(C)C1=O,1.0,-13,-33%[inhibitor],-10%,29,-9%,7.9%
CCOc1ccc(C(c2c(O)nc(SC)[nH]c2=O)c2c(O)nc(SC)[nH]c2=O)cc1,nt,nt,-3%,nt,-15,9%,-0.6%
Cc1ccc(OCCNC(=O)c2cc(=O)[nH]c3ccccc23)cc1,-5.6,19,-1%,13%,0,3%,1.2%
CN1C2C=C3C(C#N)=C(N)C(C#N)(C#N)[C@@H](c4cccc(F)c4)[C@@H]3C1CC2 (stereo partly drawn),?,-3,-1%,-7%,-1,-6%,-22%
CC(NCc1ccccc1Cl)C(=O)Nc1ccc(S(=O)(=O)N2CCCC2)cc1 (stereo not drawn),0.3,-9,15%[15.4 µM],56µM*,13,3%,0.3%
Cc1cc(OCC(=O)N(Cc2ccco2)c2c(N)n(Cc3ccccc3)c(=O)[nH]c2=O)ccc1Cl,nt,10,-33%[inhibitor],nt,-4,-9%,3.7%
Cc1cc(C)nc(NS(=O)(=O)c2ccc(NC(=S)NC(=O)C(C)C)cc2)n1,2.2,-9,-2%,1%,-9,14%,-1.1%
O=c1[nH]c(Cn2nnc(-c3ccccc3)n2)nc2scc(-c3ccccc3)c12,5.7,?,22%,15%,7,-11%,-4.9%
COc1ccc(N(C)C(=O)Cc2c(C(=O)O)n(C)c3ccccc23)cc1,-2.4,-10,?,11%,1,-1%,-19%
O=C1/C(=C/c2ccc(F)cc2)CCC1C1CCCC1 (stereo not drawn),1.9,9,0%[15.4 µM],0%,-2,14%,1.6%
O=C(NC(=S)Nc1cccnc1)c1cccc(Cl)c1,nt,nt,-61%[inhibitor],nt,-11,nt,-2.1%
CCCCCCNC(=O)Cc1nc2nc(C)cc(C)n2n1,-0.5,6,8%,-30%,42,-1%,1.5%
Cc1ccc(S(=O)(=O)c2nnn3c2nc(N2CCN(c4ccccn4)CC2)c2ccccc23)cc1,-4.2,-8,-33%[inhibitor],10%,-1,4%,-3.8%
CN(C)CCN(Cc1cc2cc3c(cc2[nH]c1=O)OCCO3)C(=S)NCC1CCCO1 (stereo not drawn),4.4,?,-29%[15.4 µM],16%,4,nt,nt
COc1ccc(CN2CCNC(=O)C2CC(=O)NCCSc2nccn2C)c(OC)c1 (stereo not drawn),2.1,-7,?,-9%,-5,7%,nt
O=C(Nc1cccc(F)c1)Nc1c[nH]c(=O)[nH]c1=O,3.2,-15,-6%[15.4 µM],3%,3,3%,1.5%
CCCC(=O)N1CC(=O)Nc2ccc(C)cc2C1c1ccc(F)cc1 (stereo not drawn),3.6,-17,-93%[inhibitor],5%,13,5%,0.9%
CCCOc1ccc(C(=O)CCC(=O)OCC(=O)N(CC)c2c(N)n(Cc3ccccc3)c(=O)[nH]c2=O)cc1,nt,nt,-14%,nt,-17,1%,4.9%
COc1cccc(OCC(O)CN2CCN(CCO)CC2)c1 (stereo not drawn),2.2,1,-17%,14%,54,-1%[15.4 µM],-2.6%
Cc1cccc(NC(=O)CN(C)S(=O)(=O)c2cccs2)c1,1.3,-1,0%,13%,-7,-2%,-1.1%
CCCOc1ccc(Oc2nc(-c3ccncc3)nc3ccccc23)cc1,1.3,nt,14%[15.4 µM],6%,-7,-12%,-0.5%
CO/C([O-])=N/c1c[n+](-c2ccc(C)cc2)no1,1.4,3,0%,10%,-14,-7%,-3.1%
CCN1CCN(Cc2ccc(NC(=O)c3ccc(C)c(NC(=O)C[C@@H]4NC(=O)[C@H](Cc5ccccc5)NC4=O)c3)cc2C(F)(F)F)CC1,5.1,0,-100%&-1%[inhibitor],12%,9&-16,4%,-0.5%&-0.4%
CCOC(=O)c1c(NC(=O)Cc2cccs2)sc(C)c1C,5.9,21,-35%[inhibitor],20µM*,6,-8%,0.3%
O=C(NCc1ccccc1)C1CCCN1S(=O)(=O)c1ccc(F)cc1 (stereo not drawn),-4.1,17,-3%[15.4 µM],9%,5,8%,2.3%
COC(=O)C1=C(C)NC(=O)NC1c1cc(Cl)ccc1OC (stereo not drawn),1.8,2,2%,11%,-11,-3%,-4.6%
O=c1c2[nH]c3ccccc3c2ncn1CCC1=CCCCC1,-2.5,6,-33%[inhibitor],27%,-10,17%,-12%
Cc1ccc(S(=O)(=O)N(C)C(=O)NC(=O)NS(=O)(=O)c2ccccc2)cc1,2.9,?,-18%,-19%,-10,6%,nt
CC(NC(=O)c1ccccc1)c1nnc(SCC(=O)NC2CCCC2)n1C (stereo not drawn),nt,-5,18%,6%,20,-11%,-0.7%
CCCCN(CC)Cc1ccc(CNC(=S)Nc2c(C)cc(C)cc2C)o1,2.5,6,30%,45µM*,-7,5%,nt
COc1ccc(CCNc2nc3ccccc3n3nnnc23)cc1OC,?,-1,-68%[inhibitor],-20%,5,9%,-2.6%
CCc1cc2cc3c(cc2nc1SCC(=O)Nc1nnc(C)s1)OCCO3,0.3,-3,-22%,-16%,0,6%,-0.9%
COC(=O)CSc1nnc(CSc2nc(C)cc(C)n2)n1Cc1ccco1,0.8,-15,8%,-26%,-7,6%,1.4%
CCC(c1nnnn1Cc1ccco1)N(CCc1ccccc1)Cc1cc2ccc(OC)cc2[nH]c1=O (stereo not drawn),14,9,-16%,-16%,-8,-4%,-21%

# (continued)
compound,Menin MLL FP FL,TRPV1 potentiator,gsp ag,Sfp PPTase inh,TRPML1 inh,gsp antagonist,ClpP mod
Cc1[nH]c(C)c(S(=O)(=O)Nc2cccc(Cl)c2C)c1C(=O)N1CCCCC1,4.0,0,?,17%,12,-1%,-2.4%
COC(=O)C1=C(C)NC(C)=C(C(=O)OC)C1c1ccc(N(C)C)cc1,12,4,12%,7%,-2,-14%,-1.6%
COc1cc2cc(CN(Cc3cccs3)C(=S)Nc3cccc(C)c3)c(=O)[nH]c2cc1OC,-4.2,-14,nt,23%,nt,nt,nt
Cc1ccc(C(=O)NNC(=O)CCN2C(=O)C3CCCCC3C2=O)cc1 (stereo not drawn),2.7,0,-39%,13%,-4,3%,-0.4%
O=C(O)c1ccc(CN(Cc2ccccc2)S(=O)(=O)c2ccc(Cl)cc2)cc1,7.2,14,22%[15.4 µM],7%,-21,-45%,-0.7%
O=C(/C=C/c1ccccc1)N1CCN(CC(O)COc2ccccc2)CC1 (stereo not drawn),-0.4,-19,?,6%,-16,-4%,1.3%
COc1cc(C(=O)NCC(=O)N/N=C(C)\C=C\c2ccccc2)cc(OC)c1OC,2.5,-3,-26%,8%,19,0%,nt
COc1cccc(/C=c2/s/c(=C(\C#N)C(=O)N3CCOCC3)n(-c3ccccc3)c2=O)c1,-0.1,-6,-51%[inhibitor],-8%,19,12%,8.1%

# Screening results: PubChem, National Center for Advancing Translational Sciences (NCATS)
